T cruzi inh = blocks replication of Trypanosoma cruzi; T. cruzi beta-gal in NIH3T3, luminescence, 90 h; inhibition, % (concentration not given with the values); actives 1.4% (n = 300,000);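 active = mean inhibition across valid replicates above about 55%, limit read from the data; inconclusive = mean below that limit but half or more replicates reach it; inactive = mean below it, under half of replicates reach it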;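 note: signal also drops with host cell toxicity which is not excluded here; 0% = plate median of DMSO wells and 100% = zero luminescence signal; higher percent means less beta-gal luminescence so fewer parasites; stock transfer was 50 nL into about 50 µL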
Bfl-1 A1 inh = inhibitors of the anti-apoptotic protein A1, read as caspase activation; MEF A1-2A-BIM cells, Caspase-Glo 3/7 luminescence, 3 h; percent of clofoctol response, vehicle zero; caspase activation, % (test concentration not listed); actives 0.066% (n = 330,000); AID 2462;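 active = over half of replicate activation scores above 10%, or exactly half above 10 with the replicate mean above 10; inconclusive = replicate mean below 10 yet half the replicates above 10; inactive = over half of replicates below 10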;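 note: wells of about 30 µL received 50 nL stock; many hits fall short of the cut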
ALR inh = blocks human ALR sulfhydryl oxidase activity. inhibition, % (concentration not given with the values). P55789. actives 3.8% (n = 290,000). purified ALR, DTT oxidation, H2O2 HRP-luminol luminescence. AID 485317;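 active = mean and each replicate at 75% or more; inconclusive = only one of the two met; inactive = neither met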;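 note: stock transfer was 7.5 nL into about 7.5 µL; 0% = neutral wells and 100% = wells with inactivated enzyme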
Beta cell apopt = beta cell apoptosis inhibition. INS-1E cytokine-induced death, ATP luminescence, 48 h; percent of positive-control rescue, neutral wells zero. protection from apoptosis, % (test concentration not listed). actives 0.8% (n = 300,000). AID 435005;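 active = all replicates at 75% or more, or half of them and the mean; inconclusive = half reach 75% but not the mean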;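 note: 0% = cytokine-treated negative control wells and 100% = positive control rescue; higher means more ATP so stronger rescue from cytokine killing; wells of about 40 µL received 100 nL stock; the first replicate is given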
Calb FLC = C. albicans growth modulation with fluconazole; AID 1979; growth inhibition, % (no concentration beside the values); actives 0.57% (n = 300,000); C. albicans CaCi-2 (fluconazole-resistant clinical isolate) + fluconazole, Alamar Blue growth, 48 h;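 active = most replicates above 75%; inconclusive = exactly half above 75%; inactive = most below 75%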;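 note: all wells also contain fluconazole at 8 µg/ml as a sub-toxic cotreatment; 0% = median of DMSO wells and 100% = median of geldanamycin control wells; wells of about 8 µL received 7.5 nL stock; the first replicate is given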
LANA-H2A inh = blocks KSHV LANA binding to histone H2A/H2B. Q9QR71. cell-free LANA-H2A/H2B peptide, fluorescence polarization. inhibition, % (no concentration beside the values). actives 0.6% (n = 320,000). AID 2629; in the data active = inhibition mostly above about 10%, no sharp cut-off; inactive = mostly below about 6.7%;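 note: stock transfer was 7.5 nL into about 10 µL; 0% = median of vehicle wells and 100% = median of positive control wells; one replicate is shown; the record names a cut of 25% in any replicate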
Target sequence (Q9QR71 whole entry, looked up): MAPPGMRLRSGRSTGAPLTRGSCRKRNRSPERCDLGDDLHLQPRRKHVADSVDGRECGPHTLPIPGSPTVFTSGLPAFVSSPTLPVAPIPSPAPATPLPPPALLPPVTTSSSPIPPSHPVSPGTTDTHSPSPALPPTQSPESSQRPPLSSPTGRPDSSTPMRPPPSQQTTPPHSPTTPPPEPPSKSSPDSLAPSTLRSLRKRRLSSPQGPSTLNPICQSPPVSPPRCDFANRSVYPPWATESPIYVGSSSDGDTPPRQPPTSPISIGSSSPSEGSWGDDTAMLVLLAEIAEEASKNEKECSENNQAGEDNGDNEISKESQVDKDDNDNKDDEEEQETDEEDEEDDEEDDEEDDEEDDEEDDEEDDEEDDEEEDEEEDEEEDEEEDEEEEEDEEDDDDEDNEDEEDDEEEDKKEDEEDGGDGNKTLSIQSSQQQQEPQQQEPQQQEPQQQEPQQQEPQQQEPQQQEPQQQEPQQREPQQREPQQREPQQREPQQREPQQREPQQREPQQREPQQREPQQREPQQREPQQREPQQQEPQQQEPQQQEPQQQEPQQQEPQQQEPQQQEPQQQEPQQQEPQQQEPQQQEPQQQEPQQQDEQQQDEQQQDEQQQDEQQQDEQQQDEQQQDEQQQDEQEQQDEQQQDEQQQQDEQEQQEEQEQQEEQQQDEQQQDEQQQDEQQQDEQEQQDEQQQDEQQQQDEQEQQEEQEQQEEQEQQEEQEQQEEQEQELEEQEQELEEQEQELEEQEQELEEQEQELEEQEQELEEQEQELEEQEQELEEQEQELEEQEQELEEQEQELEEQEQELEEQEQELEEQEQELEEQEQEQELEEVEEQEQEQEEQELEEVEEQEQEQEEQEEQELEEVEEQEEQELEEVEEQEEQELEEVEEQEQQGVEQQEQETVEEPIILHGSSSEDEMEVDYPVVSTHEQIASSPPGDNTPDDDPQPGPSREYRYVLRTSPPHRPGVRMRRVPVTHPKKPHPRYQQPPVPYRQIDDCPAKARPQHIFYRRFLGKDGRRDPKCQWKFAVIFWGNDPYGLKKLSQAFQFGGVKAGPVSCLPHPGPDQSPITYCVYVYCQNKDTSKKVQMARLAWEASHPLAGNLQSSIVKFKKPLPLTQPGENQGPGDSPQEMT
rRNA inh HTS = selective bacterial rRNA inhibition in E. coli | E. coli WT GFP vs humanized-ribosome RFP mutants, fluorescence, 24 h; stronger effect = lower value; DMSO median 0, no signal -100 | GFP signal change (wild-type ribosome), % (concentration not given with the values) | actives 1.6% (n = 350,000) | AID 720706;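 active = significant combined selectivity score with lowered wild-type GFP, culture density cut under 30%, mutant RFP and density less affected; inactive = any of these conditions unmet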; note: one replicate is shown; some compounds called inactive have numbers as strong as hits
Beta2AR agonist = activates human beta-2 adrenergic receptor causing internalization. P07550. Am2.2-beta2AR cells, FAP receptor internalization, flow cytometry; reference of the scale not given here. response, % (no concentration beside the values). actives 0.43% (n = 340,000);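 active = response above a set limit, near 3 SD of response in nonfluorescent compounds, cut at about 42% in these data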;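 note: stock transfer was 100 nL into about 11 µL; a reference agonist was the positive control; negative values mostly stem from fluorescent compounds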
rRNA inh HTS OD600 = also measured in rRNA inh HTS; calls as there; OD600 change, %; measured here: OD600 growth;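 optical density of the mix in the first replicate; 0 = DMSO median and -100 = no signal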
rRNA inh HTS RFP = recorded beside rRNA inh HTS, whose call it bears; RFP signal change, %; measured here: RFP humanized mutant strains;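 first replicate; 0 = DMSO median and -100 = no signal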
* = called active by the depositor; ? = inconclusive; nt = no result given. The list is partial, so the mix of outcomes need not match the whole.

SMILES	T cruzi inh	Bfl-1 A1 inh	ALR inh	Beta cell apopt	Calb FLC	LANA-H2A inh	rRNA inh HTS	rRNA inh HTS OD600	rRNA inh HTS RFP	Beta2AR agonist
COc1cccc(C(=O)NCCS(=O)(=O)NCCc2ccc(OC)c(OC)c2)c1	4	-0.5	-5	-3	2	0.1	2	8	-0.8	-2
COc1ccccc1C(=O)Nc1ccccc1SC(=O)c1ccccc1OC	37	-0.2	-3	29	-2	-0.1	11	9	-15	39
COc1ccc(NC(C)=O)cc1NC(=O)c1ccc2ccccc2c1	16	0.3	-19	-2	7	-8.2	-23	-25	-3.2	-1
CC(CCc1ccccc1)NC(=O)c1ccc(Br)o1 (stereo unspecified)	8	0.5	-20	1	-4	-0.7	nt	nt	nt	0
CCOc1ccccc1NC(=O)CC(O)(C(F)(F)F)C(F)(F)F	1	0.1	-2	-10	6	-1.2	nt	nt	nt	-7
O=C(O)CSc1nnc(-c2cccnc2)n1Cc1ccccc1	-2	1.0	2	nt	5	-2.0	nt	nt	nt	1
COCc1nnc(NS(=O)(=O)c2c(C)cc(C)cc2C)s1	1	0.3	-4	-2	34	-5.7	nt	nt	nt	-1
COC(=O)c1ccccc1Oc1cc(C(F)(F)F)nc(-c2ccccn2)n1	8	0.9	-2	nt	-2	1.5	-3	9	0.1	-5
CCc1[nH]c(=O)[nH]c1C(C)S(=O)(=O)c1ccc(C)cc1 (stereo unspecified)	-2	0.5	28	-9	-2	-3.5	16	15	0.9	-5
COc1ccc(CNC(=O)C2CCN(c3nccs3)CC2)cc1	20	1.0	-4	-8	nt	7.2	nt	nt	nt	5
CCCN1Cc2cccc(C(=O)NC(C)c3cccs3)c2C1=O (stereo unspecified)	7	-0.3	0	-3	3	0.7	nt	nt	nt	-5
c1ccc(-c2ccc(C3=Nn4c(nnc4-c4cc(-c5ccccc5)n[nH]4)SC3)cc2)cc1	29	0.8	-22	11	2	1.9	28	15	-4.7	-7
CN(C(=O)c1cnc2n(c1=O)CCS2)C1CCCCC1	-16	0.0	nt	6	3	-4.3	1	4	-5.3	-5
CCC(C(=O)NCCCN1CCN(CC)CC1)n1nc(C)n2c(cc3occc32)c1=O (stereo unspecified)	-9	0.5	-1	4	-20	-2.5	8	12	0.6	9
O=C(CCS(=O)(=O)c1ccc(Cl)cc1)N1CCN(c2ccccc2F)CC1	0	0.9	nt	3	22	2.8	nt	nt	nt	4
CCN(Cc1ccccc1)S(=O)(=O)c1ccc(S(=O)(=O)N2CCN(C)CC2)cc1	-5	0.0	nt	7	19	-3.5	nt	nt	nt	-2
CCOC(=O)c1oc2ccccc2c1CN1CCOCC1	-4	0.4	-4	2	1	0.4	nt	nt	nt	-7
CSCCC(NS(=O)(=O)c1ccc2c(c1)oc(=O)n2C)C(=O)NC1CCCc2ccccc21 (stereo unspecified)	5	-0.4	-12	-1	10	-3.6	3	12	7.4	-8
CCN(CC)S(=O)(=O)c1ccc(NC(=S)NC(=O)C(C)C)cc1	8	0.5	-3	4	11	-0.3	nt	nt	nt	2
CCC(OC(=O)C1=Cc2ccccc2OC1)C(=O)NC1CCCC1 (stereo unspecified)	18	0.0	1	7	-5	4.8	6	-2	-2.9	1
CSc1ncc(C(=O)Nc2ccc(C)cc2C)c(C)n1	-6	-0.7	-10	-6	0	2.8	12	15	0.1	0
Cc1cc(NC(=O)Nc2ccc(C)c(C)c2)no1	7	-0.6	19	1	-17	-1.5	2	4	0.7	-14
Cc1ccc(N(CC(=O)NC2CCCCC2)S(=O)(=O)c2c(C)nn(C)c2C)cc1	-3	-0.7	3	6	0	-2.9	-4	-3	-2.9	-5
CN(C)S(=O)(=O)c1ccc(NC(=O)C2CC3C=CC2C3)cc1 (stereo unspecified)	1	-0.9	1	-4	-13	-4.1	7	17	3.4	1
Cc1cc(C)cc(N(CC(=O)NCc2ccc(F)cc2)C(=O)c2snc(C(N)=O)c2N)c1	13	-0.2	nt	1	-2	0.3	2	10	3.9	0

Compound profiles (already shown). Values in the order: T cruzi inh	Bfl-1 A1 inh	ALR inh	Beta cell apopt	Calb FLC	LANA-H2A inh	rRNA inh HTS	rRNA inh HTS OD600	rRNA inh HTS RFP	Beta2AR agonist
`COc1ccc(NC(C)=O)cc1NC(=O)c1ccc2ccccc2c1` in the list: 16	0.3	-19	-2	7	-8.2	-23	-25	-3.2	-1
`c1ccc(-c2ccc(C3=Nn4c(nnc4-c4cc(-c5ccccc5)n[nH]4)SC3)cc2)cc1` in the list: 29	0.8	-22	11	2	1.9	28	15	-4.7	-7
`Cc1cc(C)cc(N(CC(=O)NCc2ccc(F)cc2)C(=O)c2snc(C(N)=O)c2N)c1` in the list: 13	-0.2	nt	1	-2	0.3	2	10	3.9	0
`COC(=O)c1ccccc1Oc1cc(C(F)(F)F)nc(-c2ccccn2)n1` in the list: 8	0.9	-2	nt	-2	1.5	-3	9	0.1	-5
`O=C(O)CSc1nnc(-c2cccnc2)n1Cc1ccccc1` in the list: -2	1.0	2	nt	5	-2.0	nt	nt	nt	1

(more compounds)
SMILES	T cruzi inh	Bfl-1 A1 inh	ALR inh	Beta cell apopt	Calb FLC	LANA-H2A inh	rRNA inh HTS	rRNA inh HTS OD600	rRNA inh HTS RFP	Beta2AR agonist
CC(C)Cc1nnc(NC(=O)CSc2ccccn2)s1	-11	0.3	-14	1	nt	-5.7	nt	nt	nt	-11
CC1=C(C(=O)NC(C)c2ccc3c(c2)OCCO3)C2(CCC(C)CC2)OC1=O (stereo unspecified)	4	0.4	-5	-5	-8	2.6	-4	-10	3.3	-1
CCN(CC)C(C)C(=O)Nc1c2c(cc3c1CCC3)CCC2 (stereo unspecified)	7	0.1	2	-4	-23	0.9	nt	nt	nt	7
FC(F)(F)c1cc(CCN2C(=S)NC[C@@H]2c2ccccc2)cc(C(F)(F)F)c1	-10	0.9	-20	-9	6	0.4	-11	-32	8.9	-3
CSCCC(NC(=O)COc1ccccc1)C(=O)NCC1COc2ccccc2O1 (stereo unspecified)	16	-0.2	3	1	29	-0.8	-12	-8	2.4	-3
S=C(Nc1ccccc1Cl)Nc1ccc(Cl)cc1Cl	-16	0.1	-12	-4	-19	-1.1	nt	nt	nt	8
Cn1cc(S(=O)(=O)Nc2ccc3c(c2)OCCO3)cn1	15	0.1	-6	-6	-4	1.8	16	8	6.3	0
COc1ccc(C2C(C#N)=C(N)N(c3cccnc3)C3=C2C(=O)CC(C)(C)C3)cc1OC (stereo unspecified)	-2	0.3	47	-5	-3	-0.6	8	5	5.5	3
Cn1c(-c2ccc(F)cc2)cnc1NCc1ccccc1F	1	0.8	45	-2	3	0.6	9	0	0.4	4
CCOC(=O)NC(=O)/C(N=Nc1cc(C)cc(C)c1)=C(\C)O	33	0.0	1	nt	28	-0.7	10	3	1.0	-2
COc1cccc(NC(=O)CN(c2cccc(C(F)(F)F)c2)S(C)(=O)=O)c1	-5	0.5	nt	nt	36	-1.5	nt	nt	nt	5
CN(c1ccc(OCC(=O)Nc2nc3ccccc3s2)cc1)S(=O)(=O)c1ccccc1	-3	0.3	-9	3	-14	-4.9	-14	-13	-1.5	-6
Cc1ccc2nc(SCC(=O)Nc3cccc(Cl)c3)nc(=O)n2c1	-10	0.4	97*	nt	13	4.3	2	0	-3.2	6
O=C(c1cc(-c2ccncc2)nc2ccccc12)N1CCN(c2ccc(N3CCOCC3)nn2)CC1	5	1.3	-15	1	?	7.8	nt	nt	nt	3
CCCCCCc1cc2cc(C(=O)Nc3ccccc3)c(=O)oc2cc1O	5	0.0	47	112*	-2	-0.9	nt	nt	nt	22
O=S(=O)(Nc1cccc2c1CCCC2)c1cccc(C(F)(F)F)c1	4	-0.3	-3	4	21	-1.1	-14	-14	2.2	-2
O=C1C2C3CCCC3=C3CCCC3C2C(=O)N1c1ccccc1 (stereo unspecified)	0	-0.3	-1	-1	-2	12	nt	nt	nt	-7
CN(C)c1ccc(C(C(=O)NC2CCCC2)N(C(=O)c2csnn2)C2CC2)cc1 (stereo unspecified)	13	1.1	?	3	-10	-0.4	5	5	1.7	-5
Cc1ccnc(N2CCN(c3cc(C)c(C#N)c4nc5ccccc5n34)CC2)c1	19	-0.1	-16	-13	-1	3.6	nt	nt	nt	-7
COc1ccc(/C=C/C(=O)Oc2ccc(/C=N/NC(=O)c3ccncc3)cc2)cc1	-19	-1.5	1	-3	-6	5.9	12	12	-1.1	6
COc1ccc(CN2CCNC(=O)C2CC(=O)N(C)Cc2nonc2C)c(F)c1 (stereo unspecified)	4	0.4	-5	-5	-1	-0.5	nt	nt	nt	-7

Fetched one by one from above, 4 records:
SMILES	T cruzi inh	Bfl-1 A1 inh	ALR inh	Beta cell apopt	Calb FLC	LANA-H2A inh	rRNA inh HTS	rRNA inh HTS OD600	rRNA inh HTS RFP	Beta2AR agonist
Cn1c(-c2ccc(F)cc2)cnc1NCc1ccccc1F	1	0.8	45	-2	3	0.6	9	0	0.4	4
S=C(Nc1ccccc1Cl)Nc1ccc(Cl)cc1Cl	-16	0.1	-12	-4	-19	-1.1	nt	nt	nt	8
Cn1cc(S(=O)(=O)Nc2ccc3c(c2)OCCO3)cn1	15	0.1	-6	-6	-4	1.8	16	8	6.3	0
FC(F)(F)c1cc(CCN2C(=S)NC[C@@H]2c2ccccc2)cc(C(F)(F)F)c1	-10	0.9	-20	-9	6	0.4	-11	-32	8.9	-3
